Screens: PubChem BioAssay, Fisher Drug Discovery Resource Center
NPYLR7 agonist – activates Aedes aegypti NPYLR7 receptor | HEK293T NPYLR7/Galpha15, GCaMP6s calcium fluorescence | activation, % at 10 µM | actives 0.15% (n = 270,000) | AID 1259423; in the data active = activation above about 40%;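 note: 0% = vehicle and 100% = reference agonist at the receptor; some compounds past the cut are filed as inactive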
NPYLR7 agonist max-min – recorded beside NPYLR7 agonist, whose call it bears; activation, %; measured here: Max-Min RFU normalised activation; some inactives read as strong as hits;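 span of the calcium signal over five minutes; 0% = vehicle and 100% = native peptide agonist; compound fluorescence can raise it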
The depositor's hits bear a star; & = joins results of further samples. Not all compounds are listed (hit frequency here may not be typical).

SMILES	NPYLR7 agonist	NPYLR7 agonist max-min
CC1=C(C(=O)N(Cc2nccn2C)C(C)C)C(C)NC(=O)N1 (centres undefined)	12.0	8.8
Cn1c(=O)[nH]c(=O)c2c1nc(N1CCCC1)n2CCSc1ncccn1	15.5	4.8
CC1CN(C(=O)c2ccc(Cl)c(NS(=O)(=O)c3ccc(F)cc3)c2)CCO1 (centres undefined)	4.8	-0.3
CN(Cc1ccc(Cl)s1)C(=O)CSc1nnc(NC2CC2)s1	4.7	2.2
CCOC(=O)C1=C(N2CCOCC2)CC(c2ccc(C)cc2)(C(F)(F)F)NC1=O (centres undefined)	3.2	9.0
CCCC(=O)N1CCC1(C)C(=O)Nc1cccc2c1CCCC2 (centres undefined)	3.8	-0.9
O=C(Nc1cccc2ccccc12)C1CC=CCC1C(=O)OCC1CCCO1 (centres undefined)	4.5	3.5
CCc1noc(C)c1C(=O)N1CCCC(c2nc(C)no2)C1 (centres undefined)	9.9	8.5
Cc1cc(=O)n2cccc(O)c2n1	1.9	50.0
CNC(=O)C(c1ccc(Cl)cc1)N(C)Cc1c(C)noc1C (centres undefined)	-1.0&5.3	-3.5&3.5
COC(=O)c1sccc1NC(=O)CSc1ccc(NC(C)=O)cc1	1.1	3.0
COCCn1cc(C(=O)N2CCN(CC(N)=O)CC2)c2nn(-c3ccccc3)c(=O)c-2c1	-3.3	-8.2
COc1ccc(NC(=O)Nc2nc(CCC(=O)NC(C)C)cs2)cc1	6.8	5.6
O=C(CC1CCc2ccccc21)N(CCO)Cc1ccco1 (centres undefined)	20.9	10.7
Cc1c(F)cccc1NC(=O)NCCNc1cc(-n2ccnc2C)ncn1	-13.6	-21.2
CC(C)c1nnc(-c2cc3ccccc3n2CC(=O)Nc2ccccc2)o1	-6.6	-5.7
CCCC1Oc2ccccc2C(=O)N(CC(=O)c2cc(C)ccc2OC)C1=O (centres undefined)	-8.9	-10.5
S=C1SCN(Cc2cccnc2)CN1Cc1ccccc1	9.1	5.9
O=C(Nc1ccc2c(c1)OCO2)c1ccc(CSc2nnc(-c3ccccc3[N+](=O)[O-])n2Cc2ccccc2)cc1	4.1	5.2
O=[N+]([O-])c1ccc2cn[nH]c2c1	-1.4	-3.4
COc1cccc(-c2cnc(-c3ccc(CNC(=O)c4c(Cl)cc(Cl)cc4Cl)cc3)[nH]2)c1	2.9	15.1
CC(=O)N1N=C(c2cccs2)OC12CCCC2	0.7	-2.0
CCOC(=O)N1CCC(NC(=O)Cn2cnc([N+](=O)[O-])n2)CC1	0.4	-1.2
CSc1ccc(COc2coc(CN3CCN(C(=O)C(OC(C)=O)c4ccccc4)CC3)cc2=O)cc1 (centres undefined)	24.7	7.6
COc1cc2c(cc1OC)C(CN)N(Cc1cccc(C)c1)CC2 (centres undefined)	-0.6	-2.2
Cc1nc(CCC(=O)OC2CCN(C(=O)OC(C)(C)C)C2)cs1 (centres undefined)	-1.5	-2.9
CCC(C)N(CC(=O)N(Cc1ccc(F)cc1)Cc1cccs1)C(=O)Nc1ccccc1OC (centres undefined)	15.6	18.2
O=C(COc1cccc(F)c1)c1ccc2c(c1)N(Cc1ccc(C(=O)O)o1)C(=O)CO2	20.1	12.6
COc1ccc(C(=O)N2C[C@@H](O)[C@H](NCc3ccc4c(c3)OCO4)C2)cc1	5.2	-4.3
N#CSC1(c2ccccc2)C(=O)c2ccccc2C1=O	-12.4	-16.9
CCc1nc2ccc(C(=O)NC(C)(C)C)cn2c1N(C)Cc1cc2ccccc2s1	-4.8	-9.2
CC(NS(=O)(=O)c1cccs1)C(=O)NCCc1cccc(Cl)c1 (centres undefined)	1.9	1.8
O=C(Nc1ccc(F)cc1F)N(CC(=O)N1c2ccccc2-n2cccc2C1c1ccco1)C1CC1 (centres undefined)	24.8	30.6
COCCN1C(=O)N(Cc2ccccc2)C2(CCN(C3CCC3)CC2)C1=O	19.4	5.9
Cc1c(C(C)NC(=O)CC2=CCCCC2)cnn1-c1ccccn1 (centres undefined)	25.9	19.9
[O-][N+](=NO)[C@@H]1CCCC[C@@H]1[N+]([O-])=NO	-3.5	-9.2
CCOC(=O)C1=C(C)N=c2s/c(=C\c3ccc(Cl)cc3)c(=O)n2C1c1ccc(OC)cc1 (centres undefined)	3.3	13.3
COc1ccc(Cl)cc1C(=O)Nc1ccc(-c2nc3ccccc3o2)cc1	12.5	18.4
COCCN(Cc1cccs1)C(=O)COc1ccc2c(C)cc(=O)oc2c1	-1.0	-1.9
CC(C)Cc1nc(CCC2CCOC2=O)n(-c2ccc(F)cc2)n1 (centres undefined)	14.9	9.7
Cc1ccc(N2CC(c3nc(C)no3)CC2=O)c(Cl)c1 (centres undefined)	-6.7	-9.6
COc1ccccc1-c1csc2nc(CN(CC(O)c3ccccc3)C3CC3)[nH]c(=O)c12 (centres undefined)	7.3	10.3
CC(=O)C(c1ccccc1)C1(O)C(=O)N(Cc2ccccc2)c2ccccc21 (centres undefined)	11.6	5.3
Cc1[nH]nc(CCC(=O)NC2CC(=O)N(CCc3ccccc3)C2)c1C (centres undefined)	6.5	2.7
C=CCn1c(C2CC2)nnc1S(=O)(=O)CC1CCCO1 (centres undefined)	2.8	2.1
COCC(=O)Nc1ncc(Cc2ccc(F)c(F)c2)s1	5.1	5.9
Cc1sc2nc(C(C)Sc3nnnn3C3CC3)[nH]c(=O)c2c1C (centres undefined)	-1.8	13.1
CCCCNc1nc2c(-c3ccc(Cl)cc3)nnn2c2ccccc12	-4.1	-12.1
O=C(NC(C1CC1)C1CC1)C(c1ccccc1)c1ccccc1	-1.6	-6.5
Cc1cnccc1N1CCC(C(=O)Nc2cccc(Cl)c2O)CC1	0.9	-1.1
COc1nn(C)cc1C(=O)NCCN1CCOCC1	2.8	3.2
Cc1ccccc1C1=NOC(CN(Cc2ccc(C(F)(F)F)cc2)C(=O)C2CCCC2)C1 (centres undefined)	20.0	16.7
C=CCNC(=O)c1ccccc1N1CCC(NC(=O)c2ccccc2C)CC1	-4.1	2.6
CC(C)C1C(=O)N(C)CCN1C(=O)C1(C)CC1 (centres undefined)	0.8	-2.4
C=C(Br)CNC(=O)c1cnn(-c2ccc(F)cc2)c1C	-16.9	-22.7
O=C(O)c1cccnc1N1CCCC(N2CCCC2=O)C1 (centres undefined)	-1.4	-6.1
Cc1ccc(-n2ncc3c(=O)n(NC(=O)c4ccccc4C)cnc32)cc1C	8.4	3.7
CN(C(=O)NC(c1ccc(F)cc1)C1CCCO1)C1CCCCCC1 (centres undefined)	-0.9	-1.1
CS(=O)(=O)c1ccc(-c2cc(C(F)(F)F)cc3[nH]cnc23)cc1	4.2	2.9
Cc1cccc(C)c1NC(=O)Nc1ccc(N2CCCC2)c(C(=O)NCc2ccc(F)cc2)c1	14.9&-2.8	22.2&3.2

Given field by field: part of the list above
> CCCCNc1nc2c(-c3ccc(Cl)cc3)nnn2c2ccccc12
  NPYLR7 agonist = -4.1
  NPYLR7 agonist max-min = -12.1
> Cc1sc2nc(C(C)Sc3nnnn3C3CC3)[nH]c(=O)c2c1C (centres undefined)
  NPYLR7 agonist = -1.8
  NPYLR7 agonist max-min = 13.1
> Cc1cccc(C)c1NC(=O)Nc1ccc(N2CCCC2)c(C(=O)NCc2ccc(F)cc2)c1
  NPYLR7 agonist = 14.9&-2.8
  NPYLR7 agonist max-min = 22.2&3.2

Next section:
SMILES	NPYLR7 agonist	NPYLR7 agonist max-min
COc1ccccc1-n1cc(CNC(=O)c2oc3c(F)cccc3c2C)cn1	-1.4	-3.8
CCN(CC)Cc1cnc2c(C(=O)N(C)Cc3sccc3C)cnn2c1	26.5	16.4
CCOC(=O)c1ccc(N=c2oc3cc(O)ccc3cc2-c2nc3ccccc3[nH]2)cc1	120.4*	154.8*
CCOC(=O)Cc1c(C)nc2ncnn2c1N1CCN(C(=O)c2cc(F)c(F)cc2F)CC1	28.5	17.2
O=C1C2=C(Nc3ccc4ccccc4c3C2c2ccncc2)c2ccccc21 (centres undefined)	-0.8	-2.8
COc1cc(C=C2C(=O)c3ccccc3C2=O)ccc1OC(F)F	1.5	1.7
CC(=O)Nc1cccc(NC(=O)CSc2ccc(NC(C)=O)nn2)c1	-3.3	-4.5
COc1ccccc1OCC1CN(C(=O)CNC(=O)c2ccc(C)cc2)CCO1 (centres undefined)	-7.6	-13.3
NCc1cc(-c2ccccc2)n[nH]1	-11.3	-12.7
CCc1cc(-c2n[nH]c(C(=O)O)c2-c2nc(C)cs2)c(O)cc1O	-10.2	-17.9
COc1cccc(NC(=O)N(CC(=O)N(Cc2ccc3c(c2)OCO3)Cc2cccs2)CC(C)C)c1	-0.7	11.8
COc1cc(OC)nc(C(NC(=O)C2CCN(Cc3ccc(Cl)cc3)CC2)c2ccc(F)cc2)n1 (centres undefined)	-6.1	-2.2
O=C(NCC1CCCO1)c1coc(CN(Cc2ccc3c(c2)OCO3)Cc2ccc(Cl)cc2Cl)n1 (centres undefined)	12.6	31.2
O=c1nc(SCc2ccccc2)c2c(n1Cc1ccco1)CCC2	-3.5	-4.9
Cc1ccc(NC(=O)Nc2nc(CN3CCCC3)cs2)cc1	4.6	1.8

A second format for 3 compounds above:
mol: COc1ccccc1OCC1CN(C(=O)CNC(=O)c2ccc(C)cc2)CCO1 (centres undefined)
  NPYLR7 agonist: -7.6; NPYLR7 agonist max-min: -13.3

mol: NCc1cc(-c2ccccc2)n[nH]1
  NPYLR7 agonist: -11.3; NPYLR7 agonist max-min: -12.7

mol: CCc1cc(-c2n[nH]c(C(=O)O)c2-c2nc(C)cs2)c(O)cc1O
  NPYLR7 agonist: -10.2; NPYLR7 agonist max-min: -17.9

Later entries
SMILES	NPYLR7 agonist	NPYLR7 agonist max-min
Cc1cc(C)n(CCNc2nc3c(C)c(Cl)ccc3s2)n1	-2.8	-1.8
O=C(NCCn1nc(-c2ccc(Cl)cc2)ccc1=O)c1ccc2ccccc2c1	8.4	4.2
CCc1cc(NS(=O)(=O)c2ccc(F)c(C)c2)n[nH]1	-6.3	-5.9
Cc1csc(C(C)N(C)C(=O)c2cc(Cn3nc(C)cc3C)[nH]n2)n1 (centres undefined)	4.7	-0.5
COc1cc([N+](=O)[O-])ccc1-c1ccc(/C=C2\C(=O)N(c3cccc(C(=O)O)c3)N=C2C)o1	-6.5	-12.7
CCN1CCN(C(=O)c2ccc(CSc3nnc(-c4ccncc4)n3-c3ccccc3F)cc2)CC1	14.5	7.0
COc1ccc(/C=C/C(=O)NC2CCCN(C3Cc4ccccc4C3)C2)cc1 (centres undefined)	3.8	-0.9
CCOC(=O)C1(CCOc2ccccc2)CCN(C(=O)C2CC(C(C)C)=NO2)CC1 (centres undefined)	9.2	2.5
CN(C(=O)Cc1csc2nc(-c3ccc(F)cc3)cn12)C1CCCCC1	1.4	-1.1
CC1Cc2cc(-c3cc(COC(=O)c4ccco4)no3)ccc2O1 (centres undefined)	2.1	-0.7
CCCCOc1cc(Br)c(/C=N\O)cc1OC	4.0	5.4
COc1cc(OC)cc(C(=O)OCCN(C2=NS(=O)(=O)c3ccccc32)c2ccccc2Cl)c1	9.3	10.1
COc1ccc(C)cc1N1CC(C(=O)NC2CCCCC2)CC1=O (centres undefined)	1.4	-2.0
Cc1nn(-c2ccc(F)cc2)c(C)c1C(=O)OCC1(C)COC1	8.4	4.3
CCC(C(=O)NC(C)c1nnc(SCc2ccccc2)n1-c1ccc(Cl)cc1Cl)c1ccccc1 (centres undefined)	14.8	6.9
CCC(C(=O)N1CCc2nc(Cc3ccccc3OC)nc(N3CCOCC3)c2C1)c1ccccc1 (centres undefined)	-8.8	-6.5
Cc1ccccc1C(c1ncccc1C)N(C)C(=O)C1CCN(C(=O)c2ccc(C#N)cc2)CC1 (centres undefined)	1.3	-9.7
Cc1[nH]n(-c2ccccc2)c(=O)c1N=Nc1c(Cl)cccc1Cl	-4.3	-4.3
C(=NN1CCOCC1)c1ccccn1	5.5	3.5
N#Cc1cccc(C(=O)Nc2ccc3c(c2)OCO3)c1	2.5	0.1
CCCCNC(=S)NN=C1CC(C)CC(C)(C)C1 (centres undefined)	-0.4	-0.4
COc1ccc(CCNC(=O)c2ccccc2N2CCC(NC(=O)Nc3ccccc3)CC2)cc1	0.6	11.5
COc1cccc(-c2ccc(NC(=O)C3CCCN(Cc4ccccn4)C3)cc2)c1 (centres undefined)	10.5	5.2
Cc1nc2c(cc(OS(=O)(=O)c3cccs3)c3ccsc32)s1	6.6	10.5
COc1ccc(Oc2coc3cc(OC)ccc3c2=O)cc1	10.8	1.6
COc1cccc(CSc2nnc(-c3ccccc3F)n2-c2ccc(C)cc2)c1	6.3	12.9
CC(C(=O)Nc1ccccc1Cl)N1CCCC(N(C)C)C1 (centres undefined)	1.6	-0.3
O=C(Nc1ncc([N+](=O)[O-])s1)c1ccc(=O)n(Cc2ccc(F)cc2)c1	13.1	4.5
CC(C)C(CN=C(N(C)C)N(C)C)N1CCCC1 (centres undefined)	0.6	-2.8
Nc1ncc(-c2cccc3ccccc23)cc1-c1cccc(C(F)(F)F)c1	-1.7	-6.4
Cc1cc(C)nc(N/N=C\c2c(C)nn(-c3ccccc3)c2N2CCCCC2)n1	-5.4	-8.9
CC(C)(C)c1cc(-c2nc3c4c(ncn3n2)CCC4)n[nH]1	2.5	1.0

One compound at a time, as listed above. Order of values: NPYLR7 agonist | NPYLR7 agonist max-min
CCOC(=O)c1ccc(N=c2oc3cc(O)ccc3cc2-c2nc3ccccc3[nH]2)cc1 is entered as 120.4* | 154.8*
CC(NS(=O)(=O)c1cccs1)C(=O)NCCc1cccc(Cl)c1 (centres undefined) is entered as 1.9 | 1.8
CCOC(=O)C1=C(C)N=c2s/c(=C\c3ccc(Cl)cc3)c(=O)n2C1c1ccc(OC)cc1 (centres undefined) is entered as 3.3 | 13.3
COc1cc([N+](=O)[O-])ccc1-c1ccc(/C=C2\C(=O)N(c3cccc(C(=O)O)c3)N=C2C)o1 is entered as -6.5 | -12.7
Cc1csc(C(C)N(C)C(=O)c2cc(Cn3nc(C)cc3C)[nH]n2)n1 (centres undefined) is entered as 4.7 | -0.5
